Screening data (PubChem BioAssay)
CSC inhib: cancer stem cell inhibition | cancer stem cell-like cells viability, luminescence | inhibition, % at 7.5 µM | actives 1.1% (n = 300,000) | AID 2717;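 active means mean at 75% or more and at least half the replicates too; inconclusive means mean and replicates disagree; tested in HMLE shEcad cells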;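 further: 0% = median of negative and 100% = median of positive control wells; the first replicate is given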
PABP FP inh: PABP-poly(A) binding inhibition | actives 1% (n = 290,000) | PABP-poly(A) RNA binding, fluorescence polarization | inhibition, % at 35 µM;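 active means 50% or more with normal probe brightness, or confirmed in later tests; inconclusive means above 50% with abnormal brightness, or retests that disagree; inactive means below 50% or failed in later tests; about a fifth of its hits are not listed in these tables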;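 further: calls also rest on retests at 20 µM and on dose response follow-up; controls were probe without protein and protein plus probe with vehicle; some compounds called inactive have numbers as strong as hits; many hits fall short of the cut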
Target sequence (P11940 whole entry, looked up): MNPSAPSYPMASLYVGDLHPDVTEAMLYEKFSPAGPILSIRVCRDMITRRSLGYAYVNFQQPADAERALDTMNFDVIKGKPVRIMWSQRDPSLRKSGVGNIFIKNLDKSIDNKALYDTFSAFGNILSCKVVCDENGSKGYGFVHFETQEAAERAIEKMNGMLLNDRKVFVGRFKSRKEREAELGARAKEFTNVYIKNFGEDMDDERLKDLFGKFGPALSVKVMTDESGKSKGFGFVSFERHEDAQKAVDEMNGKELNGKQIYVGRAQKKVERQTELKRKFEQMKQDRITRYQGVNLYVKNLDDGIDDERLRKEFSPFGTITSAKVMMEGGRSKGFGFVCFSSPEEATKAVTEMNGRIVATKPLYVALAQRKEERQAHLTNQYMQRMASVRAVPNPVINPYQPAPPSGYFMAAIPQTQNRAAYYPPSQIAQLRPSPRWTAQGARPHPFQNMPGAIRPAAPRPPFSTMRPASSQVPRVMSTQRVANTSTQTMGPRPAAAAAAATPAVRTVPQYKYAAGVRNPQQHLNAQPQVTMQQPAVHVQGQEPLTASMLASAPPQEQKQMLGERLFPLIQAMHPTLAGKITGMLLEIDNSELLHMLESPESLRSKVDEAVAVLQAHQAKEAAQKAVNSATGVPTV
eIF4H FP inh: inhibitors of RNA binding by human eIF4H; inhibition, % at 35 µM; Q15056; eIF4H fluorescence polarization binding assay; actives 0.94% (n = 290,000);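 active means 50% or more with normal probe brightness, or confirmed in later tests; inconclusive means above 50% with abnormal brightness, or retests that disagree; inactive means below 50% or failed in later tests; about a fifth of its hits are not listed in these tables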;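 further: calls also rest on retests at 20 µM and on dose response follow-up; 0% = protein and probe with vehicle and 100% = probe without protein; strong numbers were not always called active; many hits fall short of the cut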
Rce1 inh: yeast Ras-converting enzyme inhibition; yeast membranes, quenched prenylated peptide cleavage fluorescence; calls only; actives 0.27% (n = 290,000); Q03530;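 active means fall in fluorescence gain of 50% or more versus controls, with final raw signal at or below 3038400; inconclusive means same 50% fall but final raw signal above 3038400; inactive means fall in fluorescence gain under 50%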;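 further: plate controls were neutral control wells for no effect and wells lacking membranes for full effect; tested at 10 µM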
MT1-MMP act inh: blocks activation of human MT1-MMP. P50281. HT1080 RFP-PRO-GFP cells, GFP/RFP ratio fluorescence, overnight; percent of plate control window, DMSO zero. GFP/RFP ratio change, % at 20 µM. actives 0.061% (n = 360,000). AID 651647;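 active means GFP/RFP ratio change of at least 30% with cell ATP level not reduced by more than half and red fluorescence within 50% of control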; further: strong numbers were not always called active
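Test system: HT1080 RFP-PRO-GFP cells; Benchmarks: DMSO and RFP-L50D-GFP cell wells; Timing: cells overnight before dosing, compound overnight, 37 °C, 5% CO2; Compound: one 20 µM compound dose with 1% DMSO; Read-out: GFP/RFP fluorescence ratio.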
Yeast UUG start: yeast start codon fidelity modulation. S. cerevisiae UUG-firefly luciferase reporter, luminescence/redox ratio. activity score, % at 18.7 µM. actives 0.13% (n = 350,000);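 active means replicate mean at a twofold rise or more, about +100% in these data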;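 further: firefly luciferase made from a UUG start codon reports start codon fidelity; reporter light over untreated wells divided by growth signal over untreated wells; some hits fall short of that in this replicate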
Env fusion inh: HIV envelope-mediated fusion inhibition; HeLa-JRFL Env/CEM21 cell fusion, luciferase; inhibition, % at 12.3 µM; actives 1.1% (n = 360,000); AID 651610;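 active means mean replicate inhibition score of at least 50 and every replicate individually at or above 50; inconclusive means only one of the two criteria met; inactive means mean below 50 and not all replicates reaching 50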;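 further: 0% = plate neutral controls and 100% = maraviroc near 300 nM; one replicate is shown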
eIF4H FP inh retest: also measured in eIF4H FP inh; calls as there; inhibition, %; compound at 20 µM; confirmation average;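 mean of two retest wells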
PABP FP inh retest: recorded beside PABP FP inh, whose call it bears; inhibition, %; compound at 20 µM; confirmation repeats;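 mean of two retest wells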
MT1-MMP act inh RFP: also measured in MT1-MMP act inh; calls as there; RFP signal change, %; measured here: RFP expression control read;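 0 = vehicle wells; hits needed this value within 50% of zero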
The depositor's hits bear a star; i = inactive; ? = inconclusive; nt = no result given.

SMILES | CSC inhib | PABP FP inh | eIF4H FP inh | Rce1 inh | MT1-MMP act inh | MT1-MMP act inh RFP | Yeast UUG start | Env fusion inh | others
O=C(Nc1c(C(=O)N2CCCCC2)cnn1-c1ccccc1)c1ccco1 | -8 | -6 | 3 | nt | -2 | -1 | -7 | nt
COc1cccc(C(=O)OCC(=O)c2ccc(S(=O)(=O)N3CCCCC3)cc2)c1OC | nt | nt | nt | nt | -2 | 1 | -5 | i
CC1CCC2(CC1)OCC1(CCC3(COC4(CCC(C)CC4)OC3)C1=O)CO2 (stereo not drawn) | -4 | -7 | -1 | i | -1 | -8 | nt | -2
COc1cc(OC)c(-n2c(C)cc(C=O)c2C)cc1Cl | -15 | -5 | 1 | nt | 3 | 1 | -3 | -45
COc1cc(C(=O)NCc2ccccc2)cc(Br)c1OC | 5 | -13 | 6 | i | 2 | -2 | nt | 8
CCC(C)c1c(N)n(S(=O)(=O)c2ccc(C)cc2)oc1=O (stereo not drawn) | nt | nt | nt | nt | 0 | 0 | -8 | -21
CCC1Oc2ccc(C)cc2N(CC(=O)NCCCN2CCCCC2CC)C1=O (stereo not drawn) | -8 | -2 | -16 | i | 4 | 0 | 17 | -36
c1ccc(OCc2nc(-c3cccs3)no2)cc1 | 2 | -2 | -3 | i | 5 | 4 | -3 | nt
O=C(NCCN1CCOCC1)C1CCN(S(=O)(=O)c2ccccc2)CC1 | nt | nt | nt | nt | -3 | 1 | -14 | 0
O=C(CSc1nnc(-c2cccs2)n1-c1ccccc1)c1ccc2c(c1)OCCO2 | nt | -3 | -6 | i | 1 | 2 | -8 | nt
COc1ccc(OC)c(S(=O)(=O)NC2CCN(Cc3ccccc3)CC2)c1 | 2 | 4 | 5 | i | -2 | 2 | -12 | -1
COc1ccccc1CNC(=O)CCS(=O)(=O)c1ccc(Cl)cc1 | 22 | nt | nt | i | 6 | 1 | -14 | -2
COc1cccc(-n2c(SCC(=O)N3CCCCC3)nc3c([nH]c4ccccc43)c2=O)c1 | -3 | 4 | 2 | i | -2 | 1 | -16 | 8
CCOc1ccc(C(=O)NCC(=O)NNC(=O)c2ccco2)cc1OCC | -9 | nt | nt | nt | -2 | 1 | -5 | -25
O=C(Nc1cccc(S(=O)(=O)N2CCOCC2)c1)C1COc2ccccc2O1 (stereo not drawn) | nt | nt | nt | nt | 3 | -3 | 10 | -1
Cc1c(NC(=O)C(C#N)=C2CCCCC2)c(=O)n(-c2ccccc2)n1C | -13 | -2 | -4 | i | 2 | 3 | -9 | nt
CC(C)[C@H](N)c1cn([C@@H](CC(N)=O)C(=O)N2CCNCC2)nn1 | 22 | nt | nt | nt | -1 | 1 | -6 | -13
Cc1ccc(S(=O)(=O)n2cc(-c3ccccc3)c(N)n2)cc1 | nt | -2 | -4 | i | 3 | -3 | -18 | -17
Cc1ccc(C)c(-c2cc(C(=O)NNC(=S)NCC(C)C)c3ccccc3n2)c1 | 21 | 2 | 8 | i | 1 | -3 | nt | 7
COc1ccc(CN2C(=O)C(C)Nc3ncnc(N4CCc5ccccc5C4)c32)cc1 (stereo not drawn) | nt | nt | nt | nt | -2 | -10 | -13 | -62
CCN1CCN(C(=S)Nc2ccc(Cl)cc2Cl)CC1 | nt | -1 | 5 | i | -3 | -5 | -17 | -200
O=C(CSc1nnc(-c2ccco2)n1-c1ccccc1Cl)Nc1cccc(C(=O)O)c1 | -11 | 6 | -8 | i | 0 | 3 | 0 | -6
CCOc1ccccc1NC(=O)c1nc(S(=O)(=O)Cc2cccc(C)c2)ncc1Cl | 91* | -14 | -9 | i | 0 | -1 | -17 | -21
O=C(COc1ccccc1)Nc1nc2c(s1)CCCC2 | -14 | 5 | 0 | i | 2 | 2 | -13 | -36
O=C(CCNC(=O)c1ccc(Br)o1)NCc1ccc(Cl)cc1 | -3 | 3 | -7 | i | 6 | -1 | -17 | -12
NC(=O)NC1(C(=O)O)CCCC1 | nt | nt | nt | nt | 5 | 1 | 5 | -11
O=C(NNC(=O)C1[C@H]2CCCC[C@@H]12)c1ccc(=O)oc1 (stereo partly drawn) | -9 | 39* | ? | i | -7 | 7 | -7 | 8 | PABP FP inh retest=88*
CCN(CC)CCn1c(NCc2cccc(OC)c2)nc2ccccc21 | 9 | 4 | -7 | i | 4 | 2 | -7 | 1
COc1ccc(NS(=O)(=O)c2ccc(N3CCOCC3)c(NC(=O)c3ccc(OC)cc3)c2)cc1 | -2 | 5 | 4 | i | 1 | -4 | nt | 13
O=C(COc1ccc(Br)cc1)N1CCC(c2ccccc2)C1 (stereo not drawn) | -13 | 6 | -7 | i | -2 | -2 | 4 | nt
O=C(NN=C1CCCC1)c1cc(O)cc(O)c1 | -4 | 37 | 65 | i | 3 | 4 | -14 | 2 | eIF4H FP inh retest=50;PABP FP inh retest=36
Cc1c(C)n(C)c2ccc(C(=O)N3CCN(c4ccccn4)CC3)cc12 | -14 | 9 | -4 | i | 3 | 3 | -20 | 9
CC12CCC(=O)N1C(C(=O)Nc1ccc(F)cc1)CS2 (stereo not drawn) | -14 | 7 | -2 | i | 1 | 4 | -10 | -186
CC(C)[N+]1=C2C=CC=CC=C2SC12C([N+](=O)[O-])=CC(=[N+]([O-])[O-])C=C2[N+](=O)[O-] (stereo not drawn) | 3 | 6 | -2 | i | 5 | 13 | 1 | 3
CCOC(=O)c1sc2ccccc2c1NC(=O)c1coc2ccccc2c1=O | 43 | -9 | -1 | i | -7 | -4 | -11 | -9
CCN1CSC(=S)N(Cc2ccc(OC)cc2)C1 | 47 | 2 | 3 | i | -4 | 1 | nt | 11
CCC1=C(OC(=O)N(CC)CC)N2C(=O)OC(=NCc3ccccc3)[C@]2(C)[C@H]2C1=CC[C@H]1C(=O)N(CC(=O)OC)C(=O)[C@H]12 | -23 | 5 | -5 | i | -5 | 1 | 9 | -114
COC(=O)c1c(C(=O)OC)c2n(c1C)Cc1ccccc1C2 | 1 | 6 | 1 | i | -1 | 3 | -5 | -75
C/C(=N/NC(=O)CNC(=O)c1ccncc1)c1ccco1 | -23 | -4 | -3 | i | 3 | 2 | 180* | 13
CC(C)COC(=O)c1cc(-c2ccc(/C=N/n3cnnc3)o2)ccc1Cl | -3 | -7 | 3 | i | 1 | 2 | -19 | -12
O=C(CCN1C(=O)/C(=C/c2ccccc2F)SC1=S)N[C@@H](CO)Cc1ccccc1 | 21 | nt | nt | i | 0 | 4 | -20 | 0
COc1ccc(NC(=S)NCCc2c(C)[nH]c3ccc(OC)cc23)cc1 | -4 | 7 | 4 | i | 6 | 3 | -37 | 8
COCCNC(=O)c1cccc(OC2CCN(Cc3ccc(Cl)c(F)c3)CC2)c1 | -5 | -4 | 4 | i | 1 | -9 | 2 | 31
COc1ccc(CNC(=O)c2ccc(N3CCCC3=O)cc2)cc1 | 3 | 2 | -6 | i | nt | nt | -4 | nt
CCCNC(=O)COC(=O)c1[nH]c(C)c(C(=O)OCC)c1C | -7 | 2 | -1 | i | 2 | -2 | 3 | 1
Cc1ccccc1NC(=O)CC1c2ccccc2CC(C)(C)N1C (stereo not drawn) | -9 | 1 | 4 | i | 0 | -1 | nt | 1
O=C(CNC(=O)c1cccs1)OCc1ccc(Cl)cc1 | -19 | 6 | -12 | i | -4 | 2 | nt | 9
COc1cc2c(cc1OC)C(C(=O)NC1CC1)C1c3ccccc3CCN1C2=O (stereo not drawn) | -10 | nt | nt | i | 0 | 2 | -1 | 22
COc1ccc(OC)c(/C=C/C(=O)Oc2ccc(C(C)=O)cc2)c1 | 14 | 7 | -11 | i | -1 | 2 | 6 | -12
COc1ccc(CN(C)C(=O)CNC(=O)c2sc3ccccc3c2Cl)c(OC)c1 | nt | nt | nt | nt | 7 | -6 | 5 | -11
CC(C)Cn1c(N)c(C(=O)CSc2ccccc2)c(=O)n(C)c1=O | 12 | 24 | -4 | i | -10 | -23 | -7 | 19
O=C(NP(=O)(N1CCCC1)N1CCCC1)C1=C(N2CCOCC2)/C(=C/c2cccc([N+](=O)[O-])c2)CC1 | 4 | 7 | 45 | i | 3 | 5 | -13 | -2
COc1ccc2nc(-c3ccccn3)ccc2c1 | nt | nt | nt | nt | 2 | -4 | -66 | -140
O=c1[nH]c2ccccc2n1CCCN1CCN(C(c2ccccc2)c2ccccc2)CC1 | nt | -6 | -10 | i | nt | nt | nt | nt
CCCNc1nc2c(c(=O)[nH]c(=O)n2C)n1CCC(C)C | -5 | -3 | 3 | i | 2 | 5 | 11 | nt
CC(C)Oc1ccc(C2CC(=O)N(c3ccccc3)C2=O)cc1 (stereo not drawn) | -12 | -3 | 6 | i | 6 | 7 | nt | nt
Oc1cccc(C=Nc2cccc3ccccc23)c1O | 67 | 42* | 65* | i | 15 | 13 | -3 | 16 | eIF4H FP inh retest=110*;PABP FP inh retest=74*
COc1ccc(C(c2nnnn2C2CCCC2)N2CCc3ccccc3C2)cc1OC (stereo not drawn) | nt | 4 | -2 | i | -1 | -5 | 62 | nt
Cc1ccc(NC(=O)c2ccccc2O)cc1 | nt | -1 | 7 | i | -2 | 0 | nt | nt
CCOC(=O)c1cccc(NS(=O)(=O)c2c(C(=O)N3CCCCCC3)c(C)n(C)c2C)c1 | 7 | -3 | -3 | i | 0 | 0 | 21 | -3

Looked up one by one from the entries so far, 4 records:
SMILES | CSC inhib | PABP FP inh | eIF4H FP inh | Rce1 inh | MT1-MMP act inh | MT1-MMP act inh RFP | Yeast UUG start | Env fusion inh | others
COc1ccc(NC(=S)NCCc2c(C)[nH]c3ccc(OC)cc23)cc1 | -4 | 7 | 4 | i | 6 | 3 | -37 | 8
O=c1[nH]c2ccccc2n1CCCN1CCN(C(c2ccccc2)c2ccccc2)CC1 | nt | -6 | -10 | i | nt | nt | nt | nt
COc1ccc(OC)c(/C=C/C(=O)Oc2ccc(C(C)=O)cc2)c1 | 14 | 7 | -11 | i | -1 | 2 | 6 | -12
COc1ccc2nc(-c3ccccn3)ccc2c1 | nt | nt | nt | nt | 2 | -4 | -66 | -140

Next records
SMILES | CSC inhib | PABP FP inh | eIF4H FP inh | Rce1 inh | MT1-MMP act inh | MT1-MMP act inh RFP | Yeast UUG start | Env fusion inh | others
CCn1cc(C(=O)NCCCN2CCC(C)CC2)c(=O)c2cc(S(=O)(=O)N(C)C3CCCCC3)ccc21 | 12 | 5 | -2 | i | -4 | -1 | -21 | 11
Clc1ccc(-c2nnc(-c3ccccc3)c(N3CCSCC3)n2)cc1 | 1 | -4 | -5 | i | -6 | -6 | -14 | -56
COc1ccc(C)cc1NC(=O)c1cc(S(=O)(=O)N2CCC3(CC2)OCCO3)ccc1F | -7 | -1 | 12 | i | 3 | -2 | 6 | -3
CCOC(=O)c1[nH]cnc1C(=O)NC(C)C | -6 | -13 | 4 | i | -1 | 0 | -28 | nt
CC(C)CCNC(=O)C(=O)NCC1OCCCN1S(=O)(=O)c1cccs1 (stereo not drawn) | -9 | -6 | -2 | i | -1 | 5 | 5 | ?
COc1ccccc1NC(=O)COC(=O)C1CC2CCCC(C1)C2=O (stereo not drawn) | -15 | nt | nt | nt | -1 | 0 | nt | -14
Cc1onc(-c2c(Cl)cccc2Cl)c1C(=O)c1ccc(F)cc1 | -7 | -8 | -3 | i | 1 | -1 | -13 | 7
O=C(c1ccc(Cl)cc1)N1CCCC(C(=O)N2CCc3ccccc3C2)C1 (stereo not drawn) | -10 | 2 | 1 | i | 2 | 1 | 5 | 8

Not all compounds are listed. The share of hits here may be higher or lower than overall.
